Compound activity: PubChem, National Center for Advancing Translational Sciences (NCATS)
Menin MLL FP FL: inhibitors of human menin-MLL interaction, wild-type MLL peptide | 290,000 tested, under 10 active | FP activity change, % at 61.4 µM | AID 1766 | Fluorescence polarization, fluorescein-MLL peptide displacement from menin; inconclusive = falling polarisation curve, or a change in total fluorescence; inactive = total fluorescence flat and polarisation flat or rising; no compound was filed as active; the % refers to the polarisation; negative = inhibition;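 further: % of control where 0% means no effect; inhibitors lower the polarisation; unlabelled MLL peptide was the positive control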
gsp antag: antagonizes gsp, the McCune-Albright syndrome mutation; gsp-mutant cells, cAMP HTRF, 30 min; control for the full effect not named in the record; Potency, µM (highest dose often 76.9 µM), inactives show top-dose activity change, negative = inhibition, actives largely listed as inhibitors; hit rate 0.4% among 340,000; AID 624288; active = falling curve of any shape with a large fitted effect; inconclusive = falling curve, mostly with a smaller effect; inactive = flat or rising curve; cell line not stated here;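 further: intracellular cAMP measured with PDE inhibitor Ro 20-1724 present during compound exposure; potency means the concentration at half of the fitted maximal effect; on the % scale 0 is the no-effect control and ±100 the full control effect; nearly all actives have a fitted effect of over 65% in size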
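G418-selected cells were plated in DMEM/10% FBS for 16-24 h at 37C, then treated with compounds plus the PDE inhibitor […] (300 uM solution added) for 30 min at 37C. Intracellular cAMP was measured by HTRF after 30 min lysis at room temperature.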
TRPV1 PAM: potentiators of human vanilloid receptor 1 (TRPV1); Q8NER1; potentiation, % at 8.33 µM; TRPV1-expressing cells, Fluo-8 calcium influx, capsaicin EC20 potentiation; host cell line not named in the record; control for the full effect not named in the record; hit rate 0.02% among 320,000; active means potentiation above 80%; inconclusive means 30% to 80%; inactive means below 30%; further: 0% is about no effect
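TRPV1-expressing cells were cultured overnight at 35.5C and loaded with Fluo-8 calcium dye for 40 to 90 min at room temperature. After a 10 s baseline, compound was added and calcium influx was read kinetically for 3 min (ex 480/em 520 nm).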
Sfp inh: inhibitors of Bacillus subtilis Sfp phosphopantetheinyl transferase. Q9F4F7. Biochemical Sfp PPTase activity, qHTS. Potency, µM, for inactives: max response, negative = inhibition, usual class: inhibitors. hit rate 3.5% among 310,000. AID 1490; active means well fitted inhibition curve with a large enough effect; inconclusive means small, poorly fitted or top-dose-only effect, or another doubt; inactive means no such curve, though single readings can be large or run the other way;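 further: the enzyme is Sfp with the accession as filed and its product quenches rhodamine fluorescence; potency means the concentration at half of the fitted maximal effect; 0% = enzyme reaction without inhibitor and -100% = no enzyme wells; top concentration of the series not given in the record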
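With Hepes-Na pH 7.6 buffer containing 10 mM MgCl2, Sfp (15 nM) modified BHQ-2-YbbR (12.5 uM) using rhodamine-CoA (5 uM). Two reads 30 minutes apart at 525/598 nm yielded each well's rate.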
TRPML1 inh: blocks the human TRPML1 channel | Q9GZU1 | TRPML1-inducible cells, Ca2+ dye fluorescence, FDSS; active compounds read low; inhibition of EC80 agonist-evoked calcium signal | activity change, negative = inhibition, % (test concentration not listed) | hit rate 0.02% among 390,000 | AID 624415; in the data active means activity change below about -50%; inconclusive means about -30% to -50%; inactive means above about -30%;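 further: stimulus is agonist 54-4 at its EC80 concentration; on the % scale 0 is the no-effect control and ±100 the full control effect; compound concentration not given in the record; the text of the record puts the active cut at -80%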
Target sequence (Q9GZU1 whole entry, looked up): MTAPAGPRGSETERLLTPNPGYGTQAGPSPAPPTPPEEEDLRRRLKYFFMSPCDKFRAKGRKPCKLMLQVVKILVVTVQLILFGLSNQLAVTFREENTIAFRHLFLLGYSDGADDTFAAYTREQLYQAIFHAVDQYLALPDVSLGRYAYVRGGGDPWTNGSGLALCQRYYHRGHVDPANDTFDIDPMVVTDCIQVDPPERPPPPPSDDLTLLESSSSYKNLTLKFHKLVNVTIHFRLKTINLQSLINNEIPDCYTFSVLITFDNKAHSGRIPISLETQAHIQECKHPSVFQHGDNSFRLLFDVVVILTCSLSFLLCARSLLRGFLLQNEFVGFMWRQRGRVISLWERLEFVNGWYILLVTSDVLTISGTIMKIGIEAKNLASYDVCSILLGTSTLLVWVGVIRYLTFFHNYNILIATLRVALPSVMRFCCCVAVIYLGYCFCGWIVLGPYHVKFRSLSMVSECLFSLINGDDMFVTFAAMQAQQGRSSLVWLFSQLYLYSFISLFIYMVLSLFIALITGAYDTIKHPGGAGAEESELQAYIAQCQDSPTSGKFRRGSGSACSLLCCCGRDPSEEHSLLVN
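Calcium fluorescence in TRPML1-DL cells induced overnight with Tet: a 110 s read after compound pin addition, then a 110 s antagonist read after challenge with 54-4 at 4 uM final (EC80).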
ClpP mod: qHTS Assay for Activators of ClpP | ATP-dependent Clp protease proteolytic subunit (Bacillus subtilis (strain 168)), P80244 | purified B. subtilis ClpP, FRET peptide cleavage, 20 min | Potency, µM (top dose mostly 57.5 µM), inactives show at the top dose activity change, negative = active | hit rate 1.9% among 340,000; active = well fitted falling curve with a large enough effect; inconclusive = small, poorly fitted or top-dose-only effect; inactive = no such curve, though single readings can be large or run the other way; further: potency means the concentration at half of the fitted maximal effect; the source files actives as falling curves though it sought activators and does not explain the sign; nearly all actives have a fitted effect of over 65% in size; many hits overshoot -100%
Target sequence (P80244 whole entry, looked up): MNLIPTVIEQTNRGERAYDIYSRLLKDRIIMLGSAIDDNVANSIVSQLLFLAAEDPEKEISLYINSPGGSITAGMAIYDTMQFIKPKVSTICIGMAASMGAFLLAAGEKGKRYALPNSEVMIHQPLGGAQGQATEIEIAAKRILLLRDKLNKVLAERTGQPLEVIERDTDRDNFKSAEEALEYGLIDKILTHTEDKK
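FRET quenching reversal measured ClpP activation: 10 microg/mL B. subtilis ClpP at pH 8 with the FRET-FV decapeptide, read at 430 nm after 320 nm excitation. The 20-min minus 0-min signal was scaled between DMSO/no-enzyme wells and ADEP (5.8 microM final).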
gsp ag: gsp mutant agonism. gsp mutant cells, cAMP HTRF, 30 min; control for the full effect not named in the record. Potency, µM (series often up to 76.9 µM), without a hit: top-dose activation (cAMP increase), usual class: activators. hit rate 0.13% among 340,000. AID 624287; active = well fitted activation curve with a large enough effect; inconclusive = small, poorly fitted or top-dose-only effect, or another doubt; inactive = no such curve, though single readings can be large or run the other way; cell line not stated here;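 further: phosphodiesterase inhibitor Ro 20-1724 added with compounds to block cAMP breakdown; potency means the concentration at half of the fitted maximal effect; nearly all actives have a fitted effect of over 60% in size; about a fifth of the inactives were tested at one dose only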
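Cells stably selected in G418 were plated at 2000/well, grown 16-24 hr, then given compounds in DMSO with the PDE inhibitor […] (300 uM solution added) for 30 min at 37C; cAMP was read by HTRF.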
Active calls of the source: *; ? = inconclusive; . = no result given; & = joins results of further samples; [ ] = remark or other dose.

SMILES	Menin MLL FP FL	gsp antag	TRPV1 PAM	Sfp inh	TRPML1 inh	ClpP mod	gsp ag
CC(=O)N/N=C(\C)CC(=O)NC(C)(C)C	0.5	8%	-3	-15%	9	.	-2%[15.4 µM]
Cc1cc(C)c(C(N)=O)c(SCC(=O)c2ccc(Cl)cc2)n1	3.1	4%	.	5%	-15	-5.3%	9%
CN(NC(=O)NN(C)C(=O)c1ccccc1)C(=O)c1ccccc1	.	2%	.	.	4	1.1%	29%
CC(=O)OC(C(=O)Nc1ccccc1)C(C)S(=O)(=O)c1ccccc1 (configuration not stated)	-0.8	7%	-21	-2%	7	-7.3%	10%
COc1ccccc1-c1coc2c(CN(C)C)c(O)ccc2c1=O	1.7	-1%	2	5%	-5	4.6%	25%
COc1ccccc1CNCc1cc(Br)ccc1OC	0.4	7%	-6	63µM*	-15	.	-13%[15.4 µM]
Cn1c(N)c(C(=O)CSc2nc(C3CC3)n(-c3ccccc3)n2)c(=O)[nH]c1=O	.	11%	4	.	5	-0.4%	29%
O=C(CCCC(=O)NCCc1ccccc1)NCCc1ccccc1	6.1	13%	1	11%	45	3.3%	?
Cc1c[n+](CC(=O)c2ccccc2)cs1	2.9	-1%	?	9%	-8	-6.7%	-15%[15.4 µM]
COc1ccc(/C=C2\SC(=S)N(c3cccnc3)C2=O)cc1	2.0	7%	-7	1%	7	0.3%	0%
Oc1[nH]c2ccccc2c1N=Nc1nncc2ccccc12	-0.7	-3%	1	-25%	.	-2.5%	21%
Cc1cc(C(=O)CSc2nnnn2C)c(C)n1CCc1ccc(Cl)cc1	1.0	4%	20	2%	1	0.3%	-4%
C=CCC(NCc1ccccc1)c1ccc(OC)cc1 (configuration not stated)	-0.5	14%	-7	-3%	-18	.	6%
CN(C(=O)c1ccccc1)c1nc2ccccc2s1	1.1	-8%	-7	2%	19	-8.2%	-34%[inhibitor]
CN1CCN(C(=O)/C=C/c2ccc(Cl)cc2)CC1	0.8	18%	-22	-6%	4	.	4%[15.4 µM]
COc1cc(NS(=O)(=O)c2ccc(N/C=C(\C#N)c3nc4ccccc4o3)cc2)nc(OC)n1	3.8	-19%	-3	15%	-8	-0.8%	-24%
COc1ccc(/C=N/NC(=S)Nc2ccccc2[N+](=O)[O-])cc1O	0.0	2%	-1	-6%	43	-23%	?
CCCCN(C(=O)c1cc(S(=O)(=O)N2CCOCC2)ccc1Cl)c1c(N)n(CC(C)C)c(=O)[nH]c1=O	.	-2%	30	.	-1	0.9%	-5%
COc1ccc(NC2CCCN(C(=O)c3cc(C)nc4cc(F)ccc34)C2)cc1 (configuration not stated)	-0.7	-6%	-1	-7%	10	-2.3%	-46%[inhibitor]
CCOC(=O)c1sc(NC(=S)NC(=O)c2ccccc2)c(C(=O)OCC)c1C	-0.6	4%	-3	-4%	11	1.5%	-36%[inhibitor]
Nc1nonc1-c1nc2ccccc2n1CC(=O)NC1CCCC1	1.6	13%	3	-7%	-1	-2.5%	-24%
Cc1n[nH]c(C)c1S(=O)(=O)N1CCCC(C(=O)NCc2ccccc2Cl)C1 (configuration not stated)	0.0	-13%	-7	5%	4	-26%	-22%
CCOc1ccc(C(=O)Nc2ccc(NC(=S)NC(=O)CC)cc2)cc1Cl	-0.7	9%	-8	1%	-9	-8.3%	12%
Cc1cc(C(=O)NNC(=O)/C=C/c2ccc(F)cc2)c(C)o1	.	2%	5	18%	-5	-0.6%	-21%
O=C1NC(=O)C(=Cc2ccccc2)N1	.	-5%	.	.	-7	.	15%
O=C1N[C@@H](Cc2ccccc2)C(=O)N2CCCC12 (some centres not stated)	-2.7[94.6 µM]	7%	.	8%	31	1.6%	.
O=C(Nc1cc(S(=O)(=O)N2CCCCC2)ccc1Oc1ccccc1)C1=COCCO1	7.8	-23%	5	8%	31	-4.3%	-12%
O=C(Nc1ccccc1)N1CCN(Cc2ccccc2)CC1	-4.8	2%	-11	-10%	-6	-0.4%	12%
Cc1ccc(C2NS(=O)(=O)N=C2N)cc1 (configuration not stated)	0.9	5%	-14	-3%	-10	-1.0%	-28%
O=S(=O)(O)c1ccc(N=Nc2ccccc2)cc1	1.2	5%	14	14%	23	.	0%
COc1ccc(/C=C/C(=O)NC(=S)Nc2ccc(C(=O)O)cc2)cc1	.	-15%	-2	3%	7	-7.1%	?
Cc1ccc2nc(SCC(=O)Nc3nonc3N)[nH]c2c1	0.6	-8%	2	21%	24	-1.1%	-1%
O=[N+]([O-])c1ccccc1Oc1ccc(C(F)(F)F)cn1	-1.4	5%	2	17%	-7	.	24%
CCN(CC(=O)NCc1ccc(Cl)cc1)C(=O)C1CCN(S(=O)(=O)c2ccc(OC)c(OC)c2)CC1	.	-9%	5	.	-9	-3.1%	8%
COc1cccc(/C=C2/NC(=O)N(CC(=O)Nc3ccc(C)cc3)C2=O)c1OCc1cccc(C(=O)O)c1	12	-6%	13	?	8	.	?
COc1ccc(C(C#N)N2CCCCC2)cc1OC (configuration not stated)	0.5	1%	1	14%	0	-3.4%	-5%
COc1ccc(C(=O)Nc2ccc(Cc3ccncc3)cc2)cc1Br	1.0	?	-12	-8%	-5	-0.6%	11%
COc1ccc(OC)c(/C=C/C(=O)N(C)CC(=O)Nc2ccc(C)cc2)c1	0.6	6%	4	-12%	1	28µM*	8%[15.4 µM]
COCc1c(C(=O)NC(C)c2ccc(S(N)(=O)=O)cc2)oc2ccccc12 (configuration not stated)	-1.5	4%	5	-6%	-20	.	-3%
CC/C(C)=N/N1C(=O)c2ccccc2NC1(C)CC (configuration not stated)	2.0	14%	?	-4%	-5	.	1%[15.4 µM]
Cc1ccc(S(=O)(=O)N2CCOCC2)cc1C(=O)OCC(=O)NCCc1ccccc1	.	0%	.	.	-2	-0.2%	3%
CC(Nc1ccc(Br)cc1)C(=O)Nc1cccc(S(=O)(=O)N2CCOCC2)c1 (configuration not stated)	.	-7%	14	.	-10	.	2%[15.4 µM]
CCCCn1c(N)c(N(CCC(C)C)C(=O)c2cccc(N3C(=O)c4ccccc4C3=O)c2)c(=O)[nH]c1=O	.	-17%	.	.	55	-4.1%	11%
O=C(Nc1cccc(S(=O)(=O)N2CCOCC2)c1)c1cc(S(=O)(=O)N2CCOCC2)c(Cl)cc1Cl	.	-14%	.	.	18	0.1%	-1%
CN(c1nnc(N)s1)C1CCCCC1	1.3	6%	3	4%	-5	1.0%	2%
Cn1c(N)c(Br)c(-c2ccc(F)cc2)c(C#N)c1=O	7.1	-15%	3	3%	37	0.4%	2%[15.4 µM]
CC1CCN(CC(O)COCCOc2ccc(Br)cc2)CC1 (configuration not stated)	6.5	1%	-11	15%	-11	-0.7%	-10%
O=C(CCCCCCCCN1C(=O)c2ccccc2C1=O)N1CCOCC1	2.6	-1%	2	3%	9	.	7%[15.4 µM]
COc1ccc(C2=NN(C(=O)c3ccc(Cl)c([N+](=O)[O-])c3)C(c3ccccc3)C2)cc1 (configuration not stated)	0.6	?	-2	-21%	2	-1.3%	-39%[inhibitor]
Nc1c(N(CCC2=CCCCC2)C(=O)Cc2ccc(F)cc2)c(=O)[nH]c(=O)n1Cc1ccccc1	.	2%	-18	.	-5	-0.6%	-3%[15.4 µM]

Continuation:
SMILES	Menin MLL FP FL	gsp antag	TRPV1 PAM	Sfp inh	TRPML1 inh	ClpP mod	gsp ag
CO/N=C/c1ccc(N2CCN(C(=O)c3cccc(C(F)(F)F)c3)CC2)c([N+](=O)[O-])c1	1.6	?	20	13%	23	0.5%	-2%
COc1cc(C(=O)N/N=C/c2ccc(OC(=O)c3ccccc3)c(OC)c2)ccc1O	-1.0	-25%	0	-7%	0	-4.0%	-1%[15.4 µM]
C[C@@H]1CN([C@@H](C)CO)C(=O)CCCn2nncc2CO[C@H]1CN(C)S(=O)(=O)c1ccccc1C#N	.	.	.	.	3	-0.7%	?
CC(C)(C)OC(=O)NCc1ccc(CNC(=O)c2nc[nH]c2C(=O)NCc2ccccc2)cc1	.	-32%	26	.	7	-5.9%	?
COc1ccc(-n2ncc3c(NC(C)C)ncnc32)cc1	0.7	-12%	4	8%	2	-24%	5%
O=C(CSc1ccc2nnc(-c3ccccc3)n2n1)NCc1ccc2c(c1)OCO2	1.0	-5%	17	7%	7	?	?
O=C(Nc1nccs1)c1cccc(S(=O)(=O)N2CCCCC2)c1	2.6	-3%	1	10%	7	0.6%	-6%
O=C(N/N=C/c1ccccc1C(=O)O)c1ccncc1	-0.3	3%	0	-11%	-10	-1.6%	-13%
CCOc1ccc(S(=O)(=O)Nc2ccccc2C(=O)Nc2ccccc2N2CCOCC2)cc1	1.2	-22%	-3	2%	10	-2.1%	-24%
CCOC(=O)C1(Cc2ccccc2)CCN(Cc2cc(OC)c3c(c2)OCO3)CC1	2.4	5%	12	3%	25	.	?
CC(C)(C)OC(=O)N1CCC(NC(=O)c2[nH]cnc2C(=O)Nc2cccc(Cl)c2)CC1	.	8%	-18	.	-3	8.1%	.
CCN1CCN(c2ncnc3scc(-c4ccc(C)c(C)c4)c23)CC1	-1.0	-23%	15	8%	6	.	-9%[15.4 µM]
COc1ccccc1NC(=O)CCn1c(=O)c2cccn2c2ccccc21	.	-6%	2	15%	-17	-1.3%	18%
COc1ccc(OC)c(NC(=O)CCN2CC(C)CC(C)C2)c1 (configuration not stated)	-1.9	8%	25	0%	-5	-12%	-27%
Cc1csc(NC(=O)c2cc[n+]([O-])cc2)n1	3.0	3%	27	-9%	17	1.5%	-82%[inhibitor]
COc1ccc2c(c1)C(=O)N(CCc1ccc(S(=O)(=O)NC(=O)NC3CCCCC3)cc1)C(=O)C2(C)C	-2.2[24.8 µM]	?	7	14%&20%	-11	3.4%	20%
COc1cc(C(=O)OCC(=O)N2CCN(C(C)=O)CC2)ccc1OCC(C)C	.	7%	1	.	4	-2.3%	-1%
Cc1cc(C(=O)OCC(=O)Nc2nccs2)c2ccccc2n1	2.6	-3%	2	-14%	21	-6.2%	-59%[inhibitor]
